HIV TAR-Tat: HIV-1 TAR-Tat binding disruption; HIV-1 TAR RNA, Tat peptide displacement FRET; hits give high values; z-score (test concentration not listed); hit rate 0.6% among 100,000; AID 1259389;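 further: score is relative to mean and SD of negative controls; some compounds called inactive have numbers as strong as hits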
CDC25B CDK2 inh: human CDC25B-CDK2/CyclinA binding inhibition. z-score (concentration not given with the values). HTRF CDC25B-CDK2/CyclinA binding, anti-His/anti-Flag; hits give high values. hit rate 0.72% among 94,000. P30305+P24941. AID 1259370;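 further: score is relative to mean and SD of negative controls; strong numbers were not always called active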
Active calls of the source: *; / = not tested or not shown.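 How the source made its calls: active means z-score from 3 up in half or more of its runs; inactive means the rest.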

Every second line gives: HIV TAR-Tat | CDC25B CDK2 inh
- O=C(c1ccc(N2CCCS2(=O)=O)cc1)N1CCN(Cc2ccc3c(c2)OCO3)CC1
    1 | /
- NC(=S)Nc1cccc2nonc12
    / | -3.5
- Cc1ccc(C2=NS(=O)(=O)N(C)C(C(=O)N3CCOCC3)=C2)cc1
    2.6 | -2.8
- Cc1c(C(=O)OC(C)C)sc2ncn(CC(=O)O)c(=O)c12
    0.19 | -1.3
- CCN1CCN(CCNC(=O)C2Cc3cc(S(=O)(=O)N4CCCC4)ccc3N2C(C)=O)CC1 (configuration not stated)
    1.2 | /
- C=CCSc1nc(C)c(CC(=O)OCCCC)c(=O)[nH]1
    0.48 | -1.4
- N#Cc1c(-c2ccccc2)nc(SCC(=O)c2ccccc2)[nH]c1=O
    -0.42 | -0.8
- NC(=O)Cn1c(=O)n(CCCC(=O)NCc2ccc3c(c2)OCO3)c(=O)c2sccc21
    -1.8 | -2.4
- COc1cccc2cc(-c3nc(-c4cc5cc([N+](=O)[O-])ccc5oc4=O)cs3)c(=O)oc12
    / | -2.5
- CCN1CCN(c2cc(C)nc3nc(-c4ccccc4)nn23)CC1
    2 | -1.4
- CCOC(=O)C(=CNc1ccccc1SCCC#N)C(=O)OCC
    / | -1.2
- CCCCN(C)[C@H]1CS(=O)(=O)C[C@@H]1S(=O)(=O)c1ccccc1
    -1.4 | -2.2
- CCc1nc(-c2ccc(C)nc2OC)no1
    1.4 | -1.2
- COc1cc(-c2ccno2)ccc1S(=O)(=O)N1CCC(N2CCCCC2)CC1
    -1.4 | /
- Cc1ccccc1Cn1cccc1CNS(=O)(=O)c1ccc2c(c1)oc(=O)n2C
    1.2 | /

Full records, quoted from the list:
NC(=S)Nc1cccc2nonc12 is listed as HIV TAR-Tat = /; CDC25B CDK2 inh = -3.5
CCN1CCN(c2cc(C)nc3nc(-c4ccccc4)nn23)CC1 is listed as HIV TAR-Tat = 2; CDC25B CDK2 inh = -1.4

Four entries picked at random from those above, as already listed:
Every second line gives: HIV TAR-Tat | CDC25B CDK2 inh
- CCN1CCN(c2cc(C)nc3nc(-c4ccccc4)nn23)CC1
    2 | -1.4
- O=C(c1ccc(N2CCCS2(=O)=O)cc1)N1CCN(Cc2ccc3c(c2)OCO3)CC1
    1 | /
- Cc1c(C(=O)OC(C)C)sc2ncn(CC(=O)O)c(=O)c12
    0.19 | -1.3
- Cc1ccccc1Cn1cccc1CNS(=O)(=O)c1ccc2c(c1)oc(=O)n2C
    1.2 | /

Remaining list, next part
Every second line gives: HIV TAR-Tat | CDC25B CDK2 inh
- Cc1ccc2nc(-c3ccsc3)c(Nc3ccc4c(c3)OCCO4)n2c1
    / | -2
- CCOC(=O)c1ccc(N2CC(O)=C(c3nc4ccc(C)cc4[nH]3)C2=N)cc1
    1.1 | 0.98
- Cc1nnc(N2C(=O)c3oc4ccccc4c(=O)c3C2c2ccc(Cl)cc2)s1 (configuration not stated)
    0.6 | 0.35
- CCCN1CN=C(Nc2nc(C)c3cc(C)ccc3n2)NC1
    -1.3 | 0.44
- O=C(Nc1cccc(-c2nc3ncccc3o2)c1)C(c1ccccc1)c1ccccc1
    / | 0.54
- C/C(Cl)=C/Cn1c(=O)n(C/C=C(/C)Cl)c(=O)n(C/C=C(/C)Cl)c1=O
    / | -0.45
- Cc1cc(-c2ccc(S(=O)(=O)N(C)Cc3cnn(-c4ccccc4)c3)s2)on1
    0.01 | /
- NC(=O)c1cc(Cl)c(Cl)cc1C(N)=O
    / | -0.49
- COC(=O)C1=C(C)NC2=C(C(=O)CC(c3ccc(OC)cc3)C2)C1c1ccccc1 (configuration not stated)
    / | -1.2
- Cc1ccc(C)c(NS(=O)(=O)c2c(C)nc3sc(C)cn3c2=O)c1
    0.57 | /
- CCOC(=O)COc1ccc(C)cc1C(=O)c1ccn2nc(-c3ccc(OC)cc3)cc2n1
    -1 | -0.5
- O=c1ccc(-c2ccc(S(=O)(=O)N3CCN(c4ccccc4)CC3)s2)n[nH]1
    0.8 | /
- Cc1cccc(C2OC3(C(=O)c4ccccc4C3=O)C3C(=O)N(c4ccccc4Br)C(=O)C23)c1 (configuration not stated)
    / | -4.4
- CCc1cccc(NS(=O)(=O)c2ccc(-c3coc(C)n3)cc2)c1
    -0.11 | /
- CC(C)C(=O)Nc1ccc2c(c1)C(=O)Nc1cc(Cl)ccc1O2
    0.06 | /

Every second line gives: HIV TAR-Tat | CDC25B CDK2 inh
- Cc1ccc2nc3c(cc2c1)CCN3S(=O)(=O)c1ccc(F)cc1C
    0.9 | -0.73
- CC1CCCCC1NC(=O)C1(C)Cn2c(cc3sccc32)C(=O)N1CCCN1CCCCC1 (configuration not stated)
    3.1 | 0.3
- CC(C(=O)NCCC1=CCCCC1)n1ncn2cccc2c1=O (configuration not stated)
    2.5 | -0.04
- Cc1cc(-c2ccc(S(=O)(=O)Nc3cccc(C)n3)cc2)on1
    0.97 | /
- FC(F)(F)c1ccc(NC(=S)N2CCSCC2)c(Cl)c1
    / | -2.1
- Cc1nn(CCCC(=O)NC2CCC(C)CC2)c(=O)c2cc3sccc3n12 (configuration not stated)
    / | 0.01
- CCN(CC)C(=O)O/N=C(\N)c1cc(Br)c(OC)c(Br)c1
    / | 4
- Cc1ccc(C)n1-c1ccc(-n2c(C)ccc2C)cc1
    1.7 | -1.3
- Cc1nn(CCCC(=O)N2CC(C)CC(C)C2)c(=O)c2c1sc1ccccc12 (configuration not stated)
    3.3 | -1.8
- Cn1ncc2c(NCc3ccccc3Cl)nc(N3CCN(CCO)CC3)nc21
    2.1 | /
- COc1cc(S(=O)(=O)Nc2cccnc2)ccc1Br
    0.79 | 1.2
- O=C1N=c2ccc(Cl)cc2=C1c1sc(NS(=O)(=O)Cc2ccccc2)nc1O
    / | -4.5
- NC(=O)NC(=S)NC(=O)c1ccccc1Cl
    / | 0.13
- CCSC1=C(C#N)C(=O)NC(c2ccc(N(C)C)cc2)S1 (configuration not stated)
    -0.19 | -1.3
- Clc1ccc(-c2ncnn2-c2cccc(Cl)c2)cc1
    -0.07 | -1.2

Arranged by number of heavy atoms (high to low): some entries from above
Every second line gives: HIV TAR-Tat | CDC25B CDK2 inh
- Cc1cccc(C2OC3(C(=O)c4ccccc4C3=O)C3C(=O)N(c4ccccc4Br)C(=O)C23)c1 (configuration not stated)
    / | -4.4
- O=C(c1ccc(N2CCCS2(=O)=O)cc1)N1CCN(Cc2ccc3c(c2)OCO3)CC1
    1 | /
- Cc1ccc(C2=NS(=O)(=O)N(C)C(C(=O)N3CCOCC3)=C2)cc1
    2.6 | -2.8

More results
Every second line gives: HIV TAR-Tat | CDC25B CDK2 inh
- CCCS(=O)(=O)n1nc(-c2ccc(OCC)cc2)cc1N
    -0.28 | 0.83
- Cc1nc2nc(NC(=O)C(C)C)[nH]n2c(=O)c1Cl
    1.2 | -1.8
- Cn1cccc1Cc1nnc(SCC(=O)N2CCCc3ccccc32)n1-c1ccccc1
    0.28 | -2.2
- O=C(CSc1nc2ccccc2s1)Nc1ccc(F)cc1
    0.16 | -2.8
- Cc1ccc(N2C(=O)CSC2c2ccc(Cl)cc2)cc1 (configuration not stated)
    -0.73 | 0.21
- O=C1CCCC2=C1C(c1cccs1)n1nc(SCc3ccc(Cl)cc3)nc1N2 (configuration not stated)
    -1.5 | -2.2
- CCS(=O)(=O)N1CCC2(CC1)OC(=O)C(C)=C2C(=O)Nc1ccc(F)cc1F
    0.51 | /
- O=C1CCCN1CCCNc1nc2ccccc2c2nc(-c3cccnc3)nn12
    -0.6 | -1.4
- C[C@H](CSC(=O)c1ccccc1)C(=O)N1C[C@@H](Sc2ccccc2)CC1C(=O)O (some centres not stated)
    / | -1.1
- CC1Oc2ccccc2N(CC(=O)N2CCN(c3cc(=O)n(C)c(=O)n3C)CC2)C1=O (configuration not stated)
    1.9 | /
- O=C(CSc1ncnc2c1sc1cccc(F)c12)NCCCN1CCCC1
    -5.4 | /
- COc1ccc(NS(=O)(=O)c2cc3c4c(c2)CC(=O)N4CCC3)c(OC)c1
    1.8 | /
- CC(=O)N1C(=O)C(=O)c2cc(C)c(Br)cc21
    -0.47 | -2.5
- OCCN1CCN(C2CCN(C3CC4CCC3C4)CC2)CC1 (configuration not stated)
    / | -1.8
- Cn1c(=O)c2c(-c3ccc(Cl)cc3)n(-c3ccc(O)cc3)cc2n(C)c1=O
    0.79 | -1.4

Every second line gives: HIV TAR-Tat | CDC25B CDK2 inh
- CC1Cc2cc(S(=O)(=O)CCC(=O)NCc3ccc4c(c3)OCO4)ccc2N1C(=O)C1CC1 (configuration not stated)
    0.07 | /
- Cc1sc2ncnc(N3CCN(c4cccc(Cl)c4)CC3)c2c1C
    / | -1.8
- CN(C)CCN(Cc1ccccc1)c1ncnc2onc(-c3ccc(F)cc3)c12
    1.1 | /
- COc1ccc(-n2nnnc2C2CCN(S(=O)(=O)c3ccccc3Cl)CC2)cc1
    1.5 | -1.2
- COC(=O)C1=C(C)Nc2nnnn2C1c1cc(OC)ccc1OC (configuration not stated)
    -0.12 | -0.12
- COc1ccc(N2CCN(C(c3ccc(Cl)cc3)c3sc4nc(C)nn4c3O)CC2)cc1 (configuration not stated)
    / | -0.32
- COc1cc(C2CC(=O)Nc3cc(OC)c(OC)c(OC)c32)ccc1O (configuration not stated)
    / | -0.94
- c1ccc(-c2nnc3sc(-c4ccc5c(c4)OCO5)nn23)cc1
    -2.2 | 1.6
- Cc1ccc(Nc2c(-c3ccc(N4CCOCC4)cc3)nc3ncccn23)cc1
    1.1 | -3
- O=C(CCCCCCC(=O)NO)NO
    -3.3 | /
- CCSc1nnc2c(n1)OC(CC)=Nc1ccccc1-2
    2.4 | -1.3
- Cn1nc(CC(=O)N2CCN(c3ccccc3)CC2)c2ccccc2c1=O
    2.5 | /
- CCOC(=O)c1c(NC(=O)C2=Cc3cc(OC)ccc3OC=C2)sc2c1CCC(CC)C2 (configuration not stated)
    -1.1 | -0.29
- CC(C)(Oc1ccc(Cl)cc1)C(=O)Nc1nc2ccc(S(C)(=O)=O)cc2s1
    1.2 | -0.95
- O=C(Nc1nc2c(s1)CCCCCC2)Nc1ccc(F)cc1F
    1.5 | /

Every second line gives: HIV TAR-Tat | CDC25B CDK2 inh
- COc1ccc(S(=O)(=O)N2CCN(c3ccc4nnc(-c5ccc(F)cc5)n4n3)CC2)cc1
    1 | -1.2
- NC(=O)c1c(-c2ccc(F)cc2)noc1N
    1.6 | 1.3
- N[C@@H](Cc1ccccc1)c1nnc(SCc2cccc3ccccc23)o1
    1.7 | -0.75
- CCc1cccc(NS(=O)(=O)c2ccc(-c3cnc(C4CC4)o3)cc2)c1
    1.9 | /
- CC1CN(C(=O)CSc2nc(-c3ccco3)cc(C(F)(F)F)n2)CC(C)O1 (configuration not stated)
    1.6 | -0.37
- CO[C@H]1/C=C/O[C@@]2(C)Oc3c(C)c(O)c4c(O)c(c(/C=N/N5CCN(C)CC5)c(O)c4c3C2=O)NC(=O)/C(C)=C\C=C\[C@H](C)[C@H](O)[C@@H](C)[C@@H](O)[C@@H](C)[C@H](OC(C)=O)[C@@H]1C
    -5.5 | /
- Cc1ccc(CNc2c(-c3ccc(Cl)cc3)c(=O)c2=O)cc1
    -1.4 | /
- COc1ccc2nc(NC(=O)NC34CC5CC(CC(C5)C3)C4)sc2c1
    / | 0.12
- O=S(=O)(NCc1csc(-c2cccnc2)n1)c1ccc2c(c1)CCCC2
    0.97 | -0.45
- COc1cccc2c1OC1(C)C(C)C2NC(=S)N1CC1CCCO1 (configuration not stated)
    / | 0.75
- O=C(NNC(=O)c1cnccc1C(F)(F)F)c1ccccc1
    / | -1.1
- Cc1nc2n(n1)C(C(=O)Nc1ccc3c(c1)OCO3)CC(=O)N2 (configuration not stated)
    -0.38 | -0.2
- Clc1ccccc1CSc1nc2ccncc2[nH]1
    1.9 | /
- O=C1C2N=NN(Cc3ccc(F)cc3)C2C(=O)N1c1ccc(F)cc1 (configuration not stated)
    0.31 | -0.51
- Cn1c(NC(=O)c2cc(Br)ccc2Cl)cc(=O)n(C)c1=O
    1.6 | /

Every second line gives: HIV TAR-Tat | CDC25B CDK2 inh
- Cc1nc(SCc2ccc(C(F)(F)F)cc2)n(C)c(=O)c1Oc1cccc(C(F)(F)F)c1
    / | -2.5
- Cc1c(C(=O)NC2CCC(C)CC2)oc2ccc(S(=O)(=O)N3CCC4(CC3)OCCO4)cc12 (configuration not stated)
    / | -0.99
- CC(C)(C)Nc1nc(Oc2ccc(=O)n(-c3ccccc3)n2)nc(N2CCOCC2)n1
    -0.2 | -0.08
- O=C1CC(c2nc3ccccc3n2C/C=C/c2ccccc2)CN1Cc1ccccc1 (configuration not stated)
    0.68 | -1.2
- COc1ccc(-c2cc(OC(=O)c3ccccc3F)c3c(C)oc(C)c3c(=O)c2)cc1OC
    -1 | -1.6
- COc1ccc(S(=O)(=O)Nc2ccc(N3CCOCC3)cc2)cc1
    0.68 | -3.5
- S=c1[nH]nc(CCc2ccccc2)n1Cc1ccccc1
    / | -0.04
- O=S(=O)(c1ccc2c(c1)OCCO2)N1CCCC1c1ccco1 (configuration not stated)
    0.39 | -2
- O=C(NCC1CCCO1)C1CCN(S(=O)(=O)c2cccc3cccnc23)CC1 (configuration not stated)
    2.6 | /
- CCC(C(=O)NCCCN1CCN(CC)CC1)n1nc(C)c2sc3ccccc3c2c1=O (configuration not stated)
    2 | -2.7
- COc1ccc(Cl)cc1NC(=O)CSc1nnc(C)n2c1cc1occc12
    5.2 | /
- CC(C)Cc1c(O)nc(SCC(=O)NCc2ccco2)[nH]c1=O
    1.3 | 0.23
- N#C/C=C/c1ccc(C(F)(F)F)cc1[N+](=O)[O-]
    / | -0.73
- Cc1cc(C)c(S(=O)(=O)N2CCCC2c2cc(C)no2)c(C)c1 (configuration not stated)
    -1.5 | /
- Cc1cc2c(cc1S(=O)(=O)Nc1ccc(Cl)cc1)OCCN2C
    2.5 | /
- COc1ccc(NS(=O)(=O)c2ccc3c(c2)NC(=O)CO3)cc1OC
    1.6 | /
- Cc1ccc(-c2c(Nc3ncccc3C)c(=O)c2=O)cc1C
    -9.7 | /
- Cn1c(=O)c2sccc2n2c(CCCC(=O)NCC3CCCO3)nnc12 (configuration not stated)
    -1.3 | /
